# Assay outcomes as filed in PubChem.
# H5N1 CPE = MDCK cell protection from H5N1 avian flu | cytopathic effect, luminescence, 72 h; hits give high values; no value below 0 was filed and about half of the inactive calls have no number; reference of the scale not given here | inhibition, % at 50 µM | 0.07% of 96,000 active; in the data active means inhibition above about 25%
# An asterisk follows results filed as active; i = inactive. These rows are one share of the data, so the mix of outcomes need not match the whole.
SMILES,H5N1 CPE
O=C(NCc1ccc(C(F)(F)F)cc1)C1CC(c2c(Cl)cccc2Cl)=NO1 (stereo unspecified),1.6
CCCC(=O)C1=C(O)C(C(=O)OC)C(C)(C)CC1=Nc1ccncc1 (stereo unspecified),i
S=c1[nH]nc(-c2ccco2)n1/N=C/c1ccc(Cl)cc1Cl,i
O=C(NCc1ccccn1)c1cn(CCc2ccccc2)nn1,i
CCCN1Cc2cccc(C(N)=O)c2C1=O,i
CC(=O)c1cccc(NC(=O)c2cc3ccccn3n2)c1,i
Cc1nc(N)[nH]c(=O)c1CCC(=O)OCC(C)C,i
COC(=O)[C@H](CCSC)NC(=O)NCc1cccs1,i
COc1ccc(C(=O)COC(=O)C(C(C)C)N2C(=O)C3C4C=CC(C4)C3C2=O)cc1 (stereo unspecified),0.7
CCc1nnc(NC(=O)C2CCCN2C(=O)Nc2ccccc2OC)s1 (stereo unspecified),0.4
Cn1nc(C(=O)OCCN2C(=O)c3ccccc3C2=O)c2ccccc2c1=O,0.2
Cc1ccc(O)c(C(=O)c2cc(C#N)c(=O)n(-c3c(C)n(C)n(-c4ccccc4)c3=O)c2)c1,i
COC(=O)c1cc2ccsc2n1CC(=O)NCC1CCCO1 (stereo unspecified),i
COCCNC(=O)c1ccccc1NC(=O)c1ccc(Cl)c(S(=O)(=O)Nc2ccc(C)cc2C)c1,i
O=C(CN(c1ccccc1)S(=O)(=O)c1ccccc1)NCCSCc1ccco1,i
O=C(COC(=O)C1(c2ccc(F)cc2)CCCC1)N1CCOCC1,0.5
Nc1ccc[n+](Cc2ccccn2)c1,i
CCCCn1c(CNC(=O)c2cccs2)nc2ccccc21,1.0
Cc1nc(-c2cccc(-c3noc(C)n3)c2)no1,i
O=C(Nc1c(C(=O)N2CCOCC2)cnn1-c1ccccc1)c1ccccc1,i
CSC(=O)CC(=O)NC(=O)c1ccccc1,i
COc1ccccc1N1C(=O)C2CC=CC(C)C2C1=O (stereo unspecified),i
O=C(NCC1CCS(=O)(=O)C1)NCC1CCS(=O)(=O)C1 (stereo unspecified),i
c1ccc2oc(SCc3cn4ccccc4n3)nc2c1,2.0
COCCN(C(=O)Nc1ccc(OC)cc1OC)C1CCN(C(C)C)CC1,0.9
CCOC(=O)N1CCN(Cc2nc3c(c(=O)n(C)c(=O)n3C)n2CCCc2ccccc2)CC1,2.1
COc1ccccc1-c1nnc2sc(COc3ccc(Cl)cc3Cl)nn12,i
CCOC(=O)c1cnn(-c2ccccc2)c1NC(=O)c1ccccc1C,0.2
CCc1cccc(CC)c1NC(=O)CSc1nc2ccc(N3C(=O)C4C5C=CC(C5)C4C3=O)cc2s1 (stereo unspecified),11.3
Cc1cc(NC(=O)c2cc(-c3ccco3)on2)n(-c2ccccc2)n1,7.9
COc1ccc(/C=N/Nc2ncnc3scc(-c4ccccc4)c23)cc1OC,0.4
CCSc1cc(N2CCCC2)nc(-c2ccc(F)cc2)n1,i
COc1cc(C(=O)Nc2ccc(NC(=O)C3CC3)nc2)cc(OC)c1OC,1.2
O=C(CNS(=O)(=O)c1ccc(Br)s1)N1CCC2(CC1)OCCO2,i
CC1(C)CC(=O)C2=C(C1)Nc1ncnn1C2c1ccccn1 (stereo unspecified),0.6
COc1cccc(-c2nnc(Nc3nc4c(F)cccc4s3)o2)c1,i
COC(=O)c1sc(S(=O)(=O)N2CCN(c3ccc(OC)cc3)CC2)c(C(=O)OC)c1C,i
CCOc1cc(C2C(C(=O)c3ccco3)=C(O)C(=O)N2CCc2ccccc2)ccc1O (stereo unspecified),i
CCOC(=O)c1cnc(SCc2nc(N)nc(Nc3ccc(F)cc3)n2)nc1N,i
O=C(CCN1C(=O)c2ccccc2C1=O)NCCC1=CCCCC1,0.2
CCOC(=O)c1nn(-c2ccc(C)c(C)c2)c(=O)c2c(N)scc12,2.3
Cc1ccc(Cn2ccc(NC(=O)c3noc4c3CCc3ccccc3-4)n2)cc1,i
O=C(CN1CCOCC1)c1cccc2ccccc12,0.5
O=C(Nc1ccc(Oc2ccccc2)cc1)C1CCN(c2c3c(nc4ncnn24)CCC3)CC1,6.1
CC(C)(C)NC(=O)C1Cc2ccccc2CN1C(=O)Nc1ccccc1Cl (stereo unspecified),0.2
CCCCOc1ccc(CSc2n[nH]c(C)n2)cc1,0.7
Cn1nnc(NC(=O)c2ccc(C(C)(C)C)cc2)n1,i
CCCCNC(=O)c1ccccc1NC(=O)c1ccccc1N(C)S(C)(=O)=O,1.4
O=C(c1ccc(Br)cc1)N(C1=NCCCCS1)c1ccccc1,1.5
Cc1ccc(C(C(=O)NCc2ccco2)N(CCc2ccccc2)C(=O)Cn2nnc3ccccc32)o1 (stereo unspecified),i
CCn1c(SCCOc2ccc(Cl)cc2)nnc1-c1cccs1,i
Cc1cccc(N2CCN(C(c3cccs3)c3nnnn3C(C)(C)C)CC2)c1C (stereo unspecified),4.3
CCC(C)NC(=O)COc1ccc(S(=O)(=O)N2CCOCC2)cc1 (stereo unspecified),i
COc1ccc(-c2cc(C(=O)NCc3cccnc3)no2)cc1OC,i
O=C(Cn1nnc(-c2ccccc2Cl)n1)N1CCN(S(=O)(=O)c2ccc(Cl)cc2)CC1,2.3
O=C(NC(=O)c1ccccc1)NC(=O)c1ccccc1,i
O=C(CN1CCCCCC1)Nc1ccc(Br)cc1Br,i
c1ccc(CCNc2ccc3nncn3n2)cc1,i
Cc1ccc(-c2csc(=S)n2CC(=O)OCC(=O)NC(C)C(C)C)cc1 (stereo unspecified),i
O=C(CN(c1cccc(C(F)(F)F)c1)S(=O)(=O)c1ccccc1)N1CCOCC1,i

# More records.
SMILES,H5N1 CPE
CCOC(=O)c1sc2nc(SC)nc(-c3ccc(Cl)cc3)c2c1N,i
COc1ccc(C(=O)OCC(=O)Nc2ccc(OC(F)F)cc2)c(OC)c1,i
CCn1c(CSc2nnc(-c3cccnc3)n2-c2ccccc2C)nc2cc(C(=O)O)ccc21,4.1
CN1CCN(CC(O)COCc2ccc3c(c2)OCO3)CC1 (stereo unspecified),i
CCCCC(=O)Nc1ccc2oc(-c3cccnc3)nc2c1,i
O=S(=O)(c1ccc2c(c1)OCCO2)N1CCN(Cc2ccccc2)CC1,i
CC(=O)Nc1ccc2c(c1)n(C)c(=O)n2C,0.3
Cc1ccc(NC(=O)Cn2nc(C)c3ccccc3c2=O)cc1,i
O=C(NCCN1CCOCC1)c1cccc(Cl)c1,0.5
Cc1cc(=O)oc(C)c1C(=O)Nc1ccc2ncccc2c1,i
CCOC(C(=O)OCCC[N+](C)(CC)CC)(c1ccccc1)c1ccccc1,i
CN(C)c1nc(N)nc(Nc2ccccc2C#N)n1,1.0
Cc1c(N=C2SCC(=O)N2/N=C/c2ccccc2Cl)c(=O)n(-c2ccccc2)n1C,0.1
Cn1c(CCNC(=O)c2ccco2)nc2cc(NS(=O)(=O)c3ccc(Cl)cc3)ccc21,i
Brc1ccccc1-c1nnc(-c2cccnc2)o1,0.9
CC(=O)N(CCCc1ccc(C(C)(C)C)cc1)CCCN(C)C,i
CCOc1ccc(OCC)c(NC(=O)C2CCCN(S(=O)(=O)c3cccs3)C2)c1 (stereo unspecified),i
Cc1cc(C)c(C)c(S(=O)(=O)N2C(=S)NC(=O)C2CC(C)C)c1C (stereo unspecified),i
CC(N=c1ccccn1C(=O)Nc1ccc(F)cc1)c1ccco1 (stereo unspecified),0.1
N#Cc1ccc(OCC(=O)N2CCN(S(=O)(=O)c3cccs3)CC2)cc1,2.5
CCOc1ccc(NC(=O)CN2CCN(CC(=O)Nc3cc(OC)cc(OC)c3)CC2)cc1,i
CCOc1ccccc1NC(=O)C1CCCN(C(=O)NCc2ccccc2)C1 (stereo unspecified),0.6
CC1CCN(c2nc3c(c(=O)[nH]c(=O)n3C)n2CCCc2ccccc2)CC1,2.1
CN1CCCCc2c1nc1c(c2N)CCCC1,i
CCOC(=O)C1=C(C)N(CC(C)C)C(=O)/C1=C\c1ccc(OCC(=O)Nc2ccccc2)cc1,0.2
C=CCn1c(SCC(=O)Nc2ccc3c(c2)OCO3)nc2ccccc2c1=O,0.1
CCOC(=O)N/N=C(/C)c1ccc([N+](=O)[O-])o1,0.2
CCOC(=O)c1sc(N)c(C#N)c1COC(=O)CNC(=O)c1ccccc1,0.3
Cc1ccccc1Cn1ccc(NC(=O)c2cnn3c(C(F)(F)F)cc(-c4ccco4)nc23)n1,i
COc1nc(-c2ccccc2)ccc1-c1noc(-c2ccccc2)n1,i
CON(C)c1nc(NCC(C)C)nc(OCC#N)n1,0.3
CC(=O)N(C1=C(O)c2ccccc2C(=O)C1=O)C1CCCCC1,i
CCn1cc(C2=NOC(C(=O)O)C2)c(C)n1 (stereo unspecified),0.1
COc1cc(OC)cc(-c2nnc(SCC(=O)N(C(C)C)C(C)C)o2)c1,1.2
COc1ccc(S(=O)NC2CCCCC2)c(OC)c1C (stereo unspecified),2.7
O=C(CN1C(=O)CCC1=O)Nc1ccc(Br)cc1,i
CC(C)CCNC(=O)c1cccc(S(=O)(=O)N2CCc3ccccc32)c1,1.0
Cc1ccc(C(=O)OCc2nnc(-c3ccccc3)o2)o1,0.9
CCN(CC)Cc1c(O)ccc2c(-c3ccccc3)cc(=O)oc12,1.2
CN(Cc1nc2ccccc2n1C)C(=O)c1cccs1,1.0
c1ccc(COn2c(-c3ccccc3)nc3c2CCc2nonc2-3)cc1,0.6
CC12CN3CC(C)(CN(C1)C3c1ccc(Br)cc1)C2 (stereo unspecified),i
O=C(NC1CCN(Cc2nnnn2CCc2ccccc2)CC1)c1ccccc1F,i
CS(=O)(=O)N(CC(=O)NC1CCCCCC1)Cc1ccc(Cl)cc1,0.3
COCCn1c(N)c(C(=O)NCc2cccs2)c2nc3ccccc3nc21,0.3
CC(=O)Oc1ccc(N2C(=O)C3C4C=CC(O4)C3C2=O)cc1 (stereo unspecified),0.1
c1ccc2c(c1)CCCC2NC1=NCCC1 (stereo unspecified),i
CCc1nc(Nc2ccc(N3CCN(C(C)=O)CC3)cc2)c2oc3ccccc3c2n1,i

# Compounds above that contain a CF3 group:
SMILES,H5N1 CPE
O=C(NCc1ccc(C(F)(F)F)cc1)C1CC(c2c(Cl)cccc2Cl)=NO1 (stereo unspecified),1.6
O=C(CN(c1cccc(C(F)(F)F)c1)S(=O)(=O)c1ccccc1)N1CCOCC1,i
Cc1ccccc1Cn1ccc(NC(=O)c2cnn3c(C(F)(F)F)cc(-c4ccco4)nc23)n1,i

# The results go on.
SMILES,H5N1 CPE
O=c1c(Cc2ccc(Cl)cc2)c(O)ccn1Cc1ccccc1,0.8
CCOc1ccccc1Oc1c(C)oc2cc(OC(=O)c3ccco3)ccc2c1=O,i
Cc1ccccc1-c1noc(-c2ccccc2F)n1,0.6
CCc1c(C(=O)Nc2ccccc2)c(C)[nH]c(=S)c1C#N,i
O=C(Nc1ccccc1)C(=O)Nc1ccccn1,i
CC(=O)c1cccc(NC(=O)N2CCCC2C(=O)Nc2cc(C)ccc2C)c1 (stereo unspecified),i
CCOc1ccc2[nH]c(=O)c(CN(Cc3cccs3)Cc3nnnn3C(C)(C)C)cc2c1,i
Cc1cc(O)c(/C=N/c2ccccn2)c(=O)o1,i
CCN(CC)S(=O)(=O)c1csc(C(=O)NCc2ccccc2)c1,0.9
CC1CN(C(=O)Cn2c(C(F)(F)F)nc3ccccc32)CC(C)O1 (stereo unspecified),i
CC1(C)Cc2c(c(-c3ccco3)nc3n[nH]c(N)c23)CO1,0.7
COC(=O)c1ccc(C)c(NC(=O)CCSc2ccc(Cl)cc2)c1,i

# Among those listed so far, these contain a tert-butyl group:
SMILES,H5N1 CPE
CC(C)(C)NC(=O)C1Cc2ccccc2CN1C(=O)Nc1ccccc1Cl (stereo unspecified),0.2
Cn1nnc(NC(=O)c2ccc(C(C)(C)C)cc2)n1,i
Cc1cccc(N2CCN(C(c3cccs3)c3nnnn3C(C)(C)C)CC2)c1C (stereo unspecified),4.3
CC(=O)N(CCCc1ccc(C(C)(C)C)cc1)CCCN(C)C,i
CCOc1ccc2[nH]c(=O)c(CN(Cc3cccs3)Cc3nnnn3C(C)(C)C)cc2c1,i

# Further compounds
SMILES,H5N1 CPE
COc1ccccc1C1NC(c2ccccc2OC)C(C)C(=O)C1C (stereo unspecified),2.2
Cn1c(SCc2nc(-c3ccc(Cl)cc3)no2)nnc1-c1cccs1,2.4
COc1ccc(C(=O)Nc2ccccc2C(=O)NCc2ccco2)cc1OC,0.6
COc1cccc(NC(=S)NNC(=O)C(C)n2nc(C)c([N+](=O)[O-])c2C)c1 (stereo unspecified),0.4
Cc1cc(C)cc(C(=O)/C=C2\NC(=O)CS2)c1,1.1
CN(CC(O)CN)CC(O)CN1CCCCC1 (stereo unspecified),i
CCCc1cc(=O)oc2cc3oc(C)c(C)c3cc12,0.4
COc1cc(-c2noc(-c3ccccc3C(=O)NCc3ccco3)n2)cc(OC)c1OC,i
CC1Cc2ccccc2N1C(=O)COC(=O)CNC(=O)c1ccc(Br)o1 (stereo unspecified),i
O=S(=O)(NCCc1csc(-c2cccnc2)n1)c1cccs1,0.5
Cc1nnc(NC(=O)CSc2ncnc3scc(-c4ccccc4)c23)s1,0.3
CCOc1ccc(C2=NNC(c3cccs3)=Nc3ccc(OCC)cc32)cc1,1.5
CCCCn1c(SCC(=O)NCc2ccco2)nc2cc(S(N)(=O)=O)ccc21,4.2
Cc1cc(OCC(=O)Nc2ccc(N3CCCC3)cc2)cc(C)c1Cl,i
O=C(COc1ccc(Cl)cc1)NCCSCc1cccc(Cl)c1,0.6
Cc1cc2nc3c(nc2cc1C)C1(C(=O)N(C)C)CCC3(C)C1(C)C (stereo unspecified),0.8

# Structures listed so far that have a COOH group, in the order listed:
SMILES,H5N1 CPE
CCn1c(CSc2nnc(-c3cccnc3)n2-c2ccccc2C)nc2cc(C(=O)O)ccc21,4.1
CCn1cc(C2=NOC(C(=O)O)C2)c(C)n1 (stereo unspecified),0.1

# A draw from above in order of count of non-hydrogen atoms, largest number first:
SMILES,H5N1 CPE
COc1cc(-c2noc(-c3ccccc3C(=O)NCc3ccco3)n2)cc(OC)c1OC,i
CCOc1ccc(C2=NNC(c3cccs3)=Nc3ccc(OCC)cc32)cc1,1.5
CC1Cc2ccccc2N1C(=O)COC(=O)CNC(=O)c1ccc(Br)o1 (stereo unspecified),i
Cc1cc2nc3c(nc2cc1C)C1(C(=O)N(C)C)CCC3(C)C1(C)C (stereo unspecified),0.8
O=C(COc1ccc(Cl)cc1)NCCSCc1cccc(Cl)c1,0.6
O=S(=O)(NCCc1csc(-c2cccnc2)n1)c1cccs1,0.5
CCCc1cc(=O)oc2cc3oc(C)c(C)c3cc12,0.4
